# Compound activity: PubChem, several laboratories
# LANA-H2B inh – blocks KSHV LANA binding to histone H2A/H2B; Q9QR71; hit rate 0.6% among 320,000; cell-free LANA-H2A/H2B peptide, fluorescence polarization; AID 2629; inhibition, % (no concentration beside the values); in the data active = inhibition mostly above about 10%, no sharp cut-off; inactive = mostly below about 6.7%;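 note: stock transfer was 7.5 nL into about 10 µL; 0% = median of vehicle wells and 100% = median of positive control wells; one replicate is shown; the record names a cut of 25% in any replicate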
# Target sequence (Q9QR71 whole entry, looked up): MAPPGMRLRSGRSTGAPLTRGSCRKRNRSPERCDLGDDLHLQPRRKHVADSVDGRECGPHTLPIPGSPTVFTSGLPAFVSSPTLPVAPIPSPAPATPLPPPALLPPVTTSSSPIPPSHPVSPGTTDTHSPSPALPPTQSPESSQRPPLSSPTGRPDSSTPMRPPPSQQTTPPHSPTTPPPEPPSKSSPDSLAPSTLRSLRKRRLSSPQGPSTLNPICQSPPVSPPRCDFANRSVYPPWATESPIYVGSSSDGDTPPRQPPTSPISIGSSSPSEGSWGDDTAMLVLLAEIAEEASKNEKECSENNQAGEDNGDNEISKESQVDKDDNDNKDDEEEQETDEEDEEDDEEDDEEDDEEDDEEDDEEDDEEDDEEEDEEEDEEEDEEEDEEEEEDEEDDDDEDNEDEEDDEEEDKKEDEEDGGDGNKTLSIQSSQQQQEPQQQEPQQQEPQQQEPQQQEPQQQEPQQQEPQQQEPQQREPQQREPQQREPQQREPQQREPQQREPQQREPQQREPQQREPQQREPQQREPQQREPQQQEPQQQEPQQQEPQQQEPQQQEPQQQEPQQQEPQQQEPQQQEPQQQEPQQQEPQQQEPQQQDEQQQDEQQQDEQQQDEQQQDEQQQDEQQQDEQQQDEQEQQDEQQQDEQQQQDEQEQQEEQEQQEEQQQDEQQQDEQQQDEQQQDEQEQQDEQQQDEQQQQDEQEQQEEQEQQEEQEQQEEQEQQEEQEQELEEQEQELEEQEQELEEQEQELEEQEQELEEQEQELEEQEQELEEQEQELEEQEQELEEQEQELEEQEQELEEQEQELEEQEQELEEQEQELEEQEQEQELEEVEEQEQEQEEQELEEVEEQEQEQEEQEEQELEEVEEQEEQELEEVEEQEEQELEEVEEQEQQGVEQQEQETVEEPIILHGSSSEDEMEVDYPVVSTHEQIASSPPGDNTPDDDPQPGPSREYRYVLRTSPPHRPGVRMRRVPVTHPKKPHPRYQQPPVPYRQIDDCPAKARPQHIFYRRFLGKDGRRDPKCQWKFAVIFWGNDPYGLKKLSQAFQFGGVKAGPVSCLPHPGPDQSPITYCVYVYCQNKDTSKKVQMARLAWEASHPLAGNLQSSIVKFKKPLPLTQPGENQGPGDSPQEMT
# HNF4A DNA FP – change in binding of human HNF4 alpha to DNA | P41235 | hit rate 0.3% among 360,000 | AID 1224865 | activity change, % at 10 µM | HNF4a-FITC DNA binding, fluorescence polarization, 1 h; in the data active = activity change above about 30%, passing the limit was not always enough;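 note: controls were the assay level and a saturating level of protein; the project sought stronger binding though the title names inhibitors; some compounds called inactive have numbers as strong as hits; positive values seem to mean higher polarization but the record does not say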
# Vif TR-FRET – inhibitors of Vif binding to APOBEC3G peptide, primary screen, biochemical, TR-FRET, GST-Vif 1-94, biotin-A3G peptide, dose response retest (AID 1117319); one-dose inhibition, %; IC50 in µM for titrated hits; hit rate 0.57% among 260,000; TR-FRET GST-Vif / biotin-A3G peptide binding; higher % means a stronger effect; test concentration not given here; strong numbers were not always called active;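 active = above the screen mean plus three standard deviations and confirmed in dose response; inconclusive = results disagree or hit not tested in dose response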;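 note: Vif residues 1-94 fused to GST binding biotinylated APOBEC3G peptide 110-148; 0% = full assay without inhibitor and 100% = GST in place of GST-Vif; retest series ran down from 100 µM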
# UCH37 inh – inhibitors of human deubiquitinating enzyme UCH37; purified proteasome/UCH37, Ub-AMC cleavage fluorescence; inhibition, % (no concentration beside the values); hit rate 0.33% among 330,000;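 active = mean of two replicates above 20%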;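 note: 0% = compound-free wells with enzyme and 100% = wells lacking proteasome; stock transfer was 100 nL into about 20 µL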
#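 Schedule: 30 min plus 25 min, room temperature / Material: human UCH37 within purified proteasomes / Technique: AMC fluorescence intensity at 355/460 nm / Buffer or medium: pH 7.4 Tris-HCl (50 mM) with ovalbumin, ATP-MgCl2, DTT / Controls: wells without proteasome as full block, compound-free enzyme plus substrate as uninhibited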
# E coli growth – blocks Escherichia coli growth | OD600, 23 h; active compounds read low | OD600 absorbance (test concentration not listed) | hit rate 0.21% among 330,000;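 active = OD600 absorbance below the run mean of sample wells minus 3.6 SD, in any replicate, cut at about 0.56 in these data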;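 note: stock transfer was 300 nL into about 60 µL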
# B2AR ag – agonists of human beta-2 adrenergic receptor inducing internalization; Am2.2-beta2AR cells, FAP receptor internalization, flow cytometry; reference of the scale not given here; response, % (test concentration not listed); AID 504454; P07550; hit rate 0.43% among 340,000;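 active = response above a set limit, near 3 SD of response in nonfluorescent compounds, cut at about 42% in these data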;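 note: stock transfer was 100 nL into about 11 µL; a reference agonist was the positive control; negative values mostly stem from fluorescent compounds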
# A1 inh – inhibitors of the anti-apoptotic protein A1, read as caspase activation; caspase activation, % (concentration not given with the values); AID 2462; hit rate 0.066% among 330,000; MEF A1-2A-BIM cells, Caspase-Glo 3/7 luminescence, 3 h; percent of clofoctol response, vehicle zero;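 active = over half of replicate activation scores above 10%, or exactly half above 10 with the replicate mean above 10; inconclusive = replicate mean below 10 yet half the replicates above 10; inactive = over half of replicates below 10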;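 note: wells of about 30 µL received 50 nL stock; many hits fall short of the cut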
# The depositor's hits bear a star; ? = inconclusive; . = no result given.
SMILES,LANA-H2B inh,HNF4A DNA FP,Vif TR-FRET,UCH37 inh,E coli growth,B2AR ag,A1 inh
C#CCOCCOCCOCCNc1nc(N2CCOCC2)nc(N2CCN(C(=O)[C@H](Cc3cc4ccccc4[nH]3)n3cc([C@@H](N)Cc4ccc(O)cc4)nn3)CC2)n1,2.1,2.8,20%,23*,.,3,1.1
CC1CCCCN1C(=O)CSc1nc(-c2ccccc2)cn1N (stereo unspecified),-4.1,2.8,6%,2.4,0.71,-6,0.2
CCOC(=O)Nc1ccc2c(CN3CCN(S(=O)(=O)c4ccccc4)CC3)cc(=O)oc2c1,-3.7,0.5,9%,-29,0.69,1,0.1
COc1ccc(C)cc1NC(=O)C1CC(=O)N(Cc2ccco2)C1 (stereo unspecified),13*,-3.2,-1%,1.6,0.69,12,0.8
Cc1ccc(Oc2nc(C(F)(F)F)nc3ccccc23)cc1,-1.8,1.5,?,-0.9,0.73,-5,0.2
CC1CC1C(=O)OCC(=O)NC(=O)c1ccc(C(C)(C)C)cc1 (stereo unspecified),-2.3,-0.8,-1%,0.2,0.64,0,-1.0
Cc1nc(-c2nc(CC(=O)NNC(=O)c3ccc(Cl)cc3)cs2)cs1,-1.2,-1.5,-8%,3.7,0.68,-3,0.9
CC1CN(c2cc(=O)n(-c3ccc(Cl)cc3)c(=O)[nH]2)CC(C)O1 (stereo unspecified),.,-0.2,-1%,.,.,-1,.
COc1cccc(CN2CC(C(=O)N3CCN(C(C)C)CC3)CCC2=O)c1 (stereo unspecified),-6.4,-3.7,.,1.6,0.72,3,0.5
Cc1ccccc1-n1c(SCC(=O)c2cc(C)n(C)c2C)nnc1-c1cccnc1,1.8,-0.9,33%,3.1,0.71,2,0.4
O=C(CN1CCN(c2ccccc2F)CC1)c1ccc2c(c1)OCO2,-3.8,0.4,13%,3.2,0.73,-1,0.4
Cc1noc(C)c1S(=O)(=O)N1CCC(C(=O)Nc2ccccn2)CC1,2.9,-3.7,-8%,-2.2,0.73,1,-0.1
Cc1[nH]n(-c2nc(-c3cccc([N+](=O)[O-])c3)cs2)c(=O)c1C,3.7,-3.9,11%,0.8,0.64,-1,-2.1
C#CCN1C(=O)C(O)(CC(=O)/C=C/C=C/c2ccccc2)c2ccccc21 (stereo unspecified),2.9,-3.5,-11%,5.7,0.67,0,-0.4
O=C(COC(=O)Cn1cnc2ccccc21)NCCc1ccccc1,-3.6,-1.9,7%,1.8,0.73,0,0.8
Cc1ccc(-c2ccc(SCC(=O)NC3CCCC3)nn2)cc1,-8.4,-3.0,.,1.6,0.65,-2,0.4
COc1ccc(N2CCN(C(=O)COC(=O)c3cccc(S(=O)(=O)Nc4ccccc4OC)c3)CC2)cc1,1.4,-1.0,7%,3.2,0.73,5,0.2
O=C(CSc1nnc(Nc2ccccc2)s1)Nc1cccc(S(=O)(=O)N2CCCCC2)c1,-0.9,3.1,?,2.0,0.72,-7,-0.5
CC(C)NC(=O)CN1C(=O)C(=O)c2ccccc21,2.3,-0.9,.,3.1,0.69,-4,0.3
CCCS(=O)(=O)N1CCN(c2ccccc2F)CC1,-1.6,-0.8,-1%,2.9,0.74,3,0.9
CCN(CC)c1cccc(OCC(=O)N(C)CCC#N)c1,-6.8,32,14%,-5.4,0.72,-45,1.4
Cc1ccc(C(=O)NCC(=O)Nc2ncccc2C)s1,-1.9,-0.8,2%,0.0,0.64,4,1.1
Cc1ccc(NC(=O)COC(=O)CCCC2=NS(=O)(=O)c3ccccc3N2)cc1C,-0.4,15,.,1.7,0.66,-4,-0.1
COc1ccc([N+](=O)[O-])cc1/C=N/NC(=O)Cc1ccccc1,-1.6,2.0,7%,.,.,-9,0.3
COc1cc(OC)cc(C(=O)N/N=C2/SCC(=O)N2Cc2ccco2)c1,4.0,6.3,-6%,.,.,-1,-0.2
COc1cc(-c2nnn(CC#N)n2)ccc1OCc1ccccc1,-7.3,-0.3,-6%,2.0,0.7,1,-0.3
C=CCN(c1ccccc1)S(=O)(=O)c1cccc(C(=O)NNC(=O)c2ccncc2)c1,.,-0.8,-6%,5.7,0.7,-7,0.0
COc1cccc(CCc2nnc(CCC(=O)N3CCN(Cc4ccccn4)CC3)o2)c1,2.7,-2.6,-9%,0.3,0.7,5,0.0
O=C(Nc1ccc(O)c2c(=O)cc(-c3ccccc3Cl)oc12)c1cccc(Cl)c1,-0.9,1.2,26%,0.9,0.67,-9,0.8
COc1ccc(C(=O)C[n+]2cccc(C)c2)cc1,0.4,-2.6,7%,1.5,0.68,0,1.1
Nc1nn(S(=O)(=O)c2ccccc2)cc1-c1cccc([N+](=O)[O-])c1,2.1,-0.6,11%,2.1,0.68,-20,-0.6
COc1ccc(C(=O)Oc2cc(N)n(S(=O)(=O)c3ccccc3)n2)cc1,1.2,1.2,.,1.8,0.73,1,-0.8
Cc1ccc(NC(=O)c2cc(C)on2)cc1,1.3,-2.1,-1%,0.3,0.66,4,-3.4
COc1ccc(-c2cc(-n3c(C(F)(F)F)nc4ccccc43)n(CCC#N)n2)cc1,-1.8,0.3,9%,1.2,0.67,10,1.1
CN1CCC(NC(=O)Nc2cccc(C(F)(F)F)c2)CC1,0.2,2.1,?,4.2,0.61,3,0.1
COc1cc(OC)c(OC)cc1/C=N/n1c(C)nc2ccccc2c1=O,-2.4,0.9,.,.,.,11,0.5
Cc1nc2ccc(-c3nc4ccccc4[nH]3)cc2[nH]1,4.2,0.1,0%,.,.,-22,-5.8
Cc1nc2ccccc2cc1C(=O)N/N=C/c1cccs1,1.7,-0.8,.,.,.,2,-0.1
O=C1COc2ccc(S(=O)(=O)CCC(=O)N3CCN(c4ccccc4)CC3)cc2N1,5.8,3.1,-4%,-0.2,0.69,7,-0.4
CC(C)=C(NC(=O)c1ccccc1)C(=O)NC(Cc1ccccc1)C(=O)O (stereo unspecified),-3.1,-0.7,7%,0.9,0.6,16,-0.8
COc1cccc(C(=O)C2CCCN(C(=O)c3ccccn3)C2)c1 (stereo unspecified),5.4,-2.5,.,3.7,0.67,-6,0.6
C/C(=N\NC(=O)c1cccc(O)c1)c1cccc(NC(=O)c2ccc(F)cc2)c1,-3.1,-2.1,.,.,.,9,-3.4
COc1ccccc1/C=C/C(=O)c1c2c(c(C)[nH]c1=O)CCCC2,-7.8,2.8,0%,4.8,0.74,11,0.0
CCOc1ccc(C(=O)CCC(=O)Nc2ccc(C)cn2)cc1,.,8.2,1%,0.9,0.7,12,0.3
CC1CCCN(C(=O)C(C)Nc2cc(Cl)ccc2N2CCOCC2)C1 (stereo unspecified),-2.4,7.6,18%,-0.2,0.7,1,-0.7
CN(CC(=O)Nc1c(Cl)cccc1Cl)C(=O)c1ccncc1,111*,0.6,.,2.0,0.69,-3,-0.2
CCN(Cc1ccccc1)S(=O)(=O)c1c(C)[nH]c(C)c1C(=O)N1CCCC1,0.0,2.4,.,2.2,0.67,2,1.8
COc1ccc(NC(=O)CN2CCN(c3ccc(F)cc3)CC2)cc1Cl,3.8,1.6,66%,2.6,0.8,5,1.0
CSc1ccccc1NC(=O)Nc1ccc(Cl)cc1,-8.5,-3.2,-1%,-0.2,0.64,8,-8.2
CC(C)[C@H]1COCCS(=O)(=O)N1Cc1ccccc1,1.5,-0.7,.,1.1,.,-8,0.5

# Profiles, quoted from the list:
# `CCOc1ccc(C(=O)CCC(=O)Nc2ccc(C)cn2)cc1` reads LANA-H2B inh: .; HNF4A DNA FP: 8.2; Vif TR-FRET: 1%; UCH37 inh: 0.9; E coli growth: 0.7; B2AR ag: 12; A1 inh: 0.3
# `COc1ccc(NC(=O)CN2CCN(c3ccc(F)cc3)CC2)cc1Cl` reads LANA-H2B inh: 3.8; HNF4A DNA FP: 1.6; Vif TR-FRET: 66%; UCH37 inh: 2.6; E coli growth: 0.8; B2AR ag: 5; A1 inh: 1.0

# More structures.
SMILES,LANA-H2B inh,HNF4A DNA FP,Vif TR-FRET,UCH37 inh,E coli growth,B2AR ag,A1 inh
CS(=O)(=O)N1N=C(c2ccc(Cl)cc2)CC1c1cccs1 (stereo unspecified),-0.9,1.8,30%,0.3,0.66,-14,-3.3
C/C(Cn1nnc([N+](=O)[O-])n1)=N\NC(=O)c1ccc(O)cc1,-0.6,2.5,14%,.,.,1,0.2
Cc1nc(NC(=O)COC(=O)c2cccs2)c(Cl)cc1Cl,.,2.0,-8%,1.5,0.69,-5,.
O=C(c1nc2ccccc2s1)N1CCSCC1,-3.5,0.3,-6%,4.0,0.68,-1,-0.2
CCn1c(-c2csc3ccccc23)n[nH]c1=S,1.6,-0.3,-4%,0.3,0.64,-3,-0.4
CCOC(=O)c1c(NC(=O)COC)sc(C(C)=O)c1C,-2.1,7.9,6%,6.8,0.71,-15,0.4
COc1ccc(F)cc1S(=O)(=O)NC1CCCC1,82*,0.9,-2%,0.1,0.7,1,-1.3
O=C(/C=C/NCc1cccnc1)C(F)(F)C(F)(F)F,-4.1,2.0,8%,3.2,0.73,7,0.2
S=c1[nH]nc(-c2cc(-c3ccccc3)n[nH]2)n1/N=C/C=C/c1ccccc1,0.0,0.1,.,.,.,5,0.1
COc1ccc(CNCCCC(=O)Nc2c(Cl)ccc(C)c2Cl)cc1OC,4.2,1.6,3%,3.9,0.68,-2,0.1
CCc1c(C)nc(N)c(C#N)c1-c1ccccc1,4.3,-4.8,7%,-105,0.66,23,-0.8
COc1cccc(C(=O)NCC(c2ccco2)N2CCOCC2)c1 (stereo unspecified),2.5,2.7,-3%,1.9,0.69,-2,0.8
CC(C)Cc1cc(C(=O)Nc2sc3c(c2C#N)CCC3)no1,0.6,-1.2,-2%,3.4,0.73,28,-0.4
C/C(=N/OC(=O)c1ccc(F)cc1)c1ccc(C)cc1,7.6,0.8,13%,.,.,7,-1.1
Cc1cc(=O)n2[nH]c(-c3ccc(F)cc3)cc2n1,-0.1,-0.6,5%,-4.5,0.67,2,-4.1
CC(C)(C)Nc1nc(OCC#N)nc(N2CCCCC2)n1,0.9,3.6,-5%,3.8,0.7,-7,-0.8
O=C(CSc1nncn1-c1cccnc1)Nc1cccc([N+](=O)[O-])c1,-1.5,1.0,.,6.3,0.72,-8,-0.3
CC(=O)N(Cc1cccs1)Cc1cc2cc(C)c(C)cc2nc1Cl,-2.9,1.7,-2%,-2.1,0.67,-2,0.8
Cc1ccc(S(=O)(=O)n2ccc(-c3cccc(OCc4c(F)cccc4Cl)c3)n2)cc1,4.2,4.9,-2%,0.9,0.73,8,0.2
CCOC(=O)c1c(NC(N)=O)sc(C)c1C,-1.9,-2.8,4%,5.4,0.72,0,0.1
CCn1nc(C)c(CN2CCC(n3nccc3NC(=O)Cc3ccccc3)CC2)c1C,2.9,0.4,.,2.7,0.72,2,0.6
Cc1c[n+](C)ccc1CC1C([N+](=O)[O-])=C[N-]c2ncnn21 (stereo unspecified),.,1.1,-6%,8.6,0.65,3,.
COc1cc(/C=N/NC(=O)c2ccncc2)cc2c1OCO2,-1.5,-2.4,-11%,.,.,-4,2.2
CCOC(=O)CCCNC(=O)CN1CCC(c2nc3ccccc3s2)CC1,3.7,2.4,.,0.0,0.63,4,-0.4
COC(=O)c1cc(S(=O)(=O)N2CCN(c3cccc(OC)c3)CC2)cn1C,0.7,1.3,.,4.3,0.67,-3,0.1
O=C(NC(=S)NCC1CCCO1)c1ccc(Cl)cc1Cl (stereo unspecified),-0.7,-4.1,-4%,5.6,0.7,-12,-0.9
C[C@]12c3[nH]c4ccc(Cl)cc4c3CCN1C(=O)[C@@H](CC(=O)NCCc1ccccn1)C[C@@H]2C(=O)N1CCOCC1,.,1.1,-8%,0.6,0.71,-4,.

# No enrichment for hits (roughly 2.1% active in at least one column).
